KCNQ2 pot – potentiators of rat KCNQ2 potassium channel. Potassium voltage-gated channel subfamily KQT member 2 (Rattus norvegicus), O88943. CHO-K1 KCNQ2, FluxOR thallium flux fluorescence; active compounds read high. B-score at 10 µM. 310,000 tested, 0.54% active. AID 2239, 2010;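 active means fluorescence ratio B-score at least 3 SD of library B-scores, with initial fluorescence B-score within 3 SD, cut at about 5.3 in these data; same plate scores as AID 2156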;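 further: B-score of peak minus minimum over baseline fluorescence ratio after K+ and Tl+ stimulus; positive B-score means potentiation of KCNQ2 with more thallium influx and brighter signal; only the inactives scoring about 0 or higher are listed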
Target sequence (O88943 whole entry, looked up): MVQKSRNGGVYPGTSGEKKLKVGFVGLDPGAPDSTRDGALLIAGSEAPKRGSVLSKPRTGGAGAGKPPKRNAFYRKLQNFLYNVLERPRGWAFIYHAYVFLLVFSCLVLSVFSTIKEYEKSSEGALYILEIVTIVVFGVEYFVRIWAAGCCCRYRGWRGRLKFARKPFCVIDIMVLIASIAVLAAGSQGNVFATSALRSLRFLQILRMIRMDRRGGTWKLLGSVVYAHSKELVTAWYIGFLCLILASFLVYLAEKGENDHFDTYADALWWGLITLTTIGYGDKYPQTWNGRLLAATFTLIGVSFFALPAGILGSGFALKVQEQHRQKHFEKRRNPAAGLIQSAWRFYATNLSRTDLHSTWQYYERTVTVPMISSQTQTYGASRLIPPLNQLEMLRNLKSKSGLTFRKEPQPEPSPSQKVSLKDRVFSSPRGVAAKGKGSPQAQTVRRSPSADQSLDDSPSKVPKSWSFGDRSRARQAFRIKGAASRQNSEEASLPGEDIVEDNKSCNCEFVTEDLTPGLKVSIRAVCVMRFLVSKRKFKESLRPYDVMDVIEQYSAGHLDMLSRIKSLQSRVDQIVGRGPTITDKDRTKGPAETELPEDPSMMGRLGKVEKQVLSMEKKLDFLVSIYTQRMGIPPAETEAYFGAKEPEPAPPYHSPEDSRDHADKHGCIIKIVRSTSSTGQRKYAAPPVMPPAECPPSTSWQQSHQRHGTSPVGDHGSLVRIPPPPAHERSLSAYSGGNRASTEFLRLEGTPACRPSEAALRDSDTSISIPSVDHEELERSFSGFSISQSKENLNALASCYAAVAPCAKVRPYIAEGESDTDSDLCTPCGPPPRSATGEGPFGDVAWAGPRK
KCNQ2 pot baseline – recorded beside KCNQ2 pot, whose call it bears; B-score; compound at 10 µM; measured here: initial fluorescence intensity artifact check;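 brightness before thallium and not channel activity; 0 = typical well and far values either way flag optical interference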
* = called active by the depositor. This is a subset; rates above refer to the full screens.

SMILES	KCNQ2 pot	KCNQ2 pot baseline
O=C(CCCSc1nc2sc3c(c2c(=O)[nH]1)CCC3)NCCO	1.3	1.1
COc1cc2c(cc1OC)C(c1ccc(C)o1)CC(=O)N2 (stereo not given)	1	-0.56
Cc1cc2c(c(=O)o1)C(c1cccs1)C(C#N)=C(N)O2 (stereo not given)	0.77	0.02
CC(C)CNC(=O)COC(=O)c1ccc(Cl)c(S(N)(=O)=O)c1	0.82	0.17
COc1ccc(C(=O)Nc2cccc(C(=O)N/N=C/c3ccc(OC)cc3OC)c2)cc1	3.6	-0.16
CCOC(=O)c1ccc(N/C=C/C(=O)c2ccco2)cc1	1.3	-0.19
CN(C(=O)CN1C(=O)S/C(=C\c2cccc(Cl)c2)C1=O)C1CCS(=O)(=O)C1 (stereo not given)	0.03	-1.2
Cc1csc2c(SCC(=O)NNS(=O)(=O)c3cccc(C(F)(F)F)c3)ncnc12	0.16	-1.8
CN1Cc2cc(C(=O)c3cc(Cl)cc(CSc4ncccn4)c3O)cnc2NC1=O	0.02	-1.2
CCOC(=O)C1=C(C)NC(C)=C(C(=O)OCC)C1C(=O)OCC(=O)N(C)C1CCS(=O)(=O)C1 (stereo not given)	0.38	0.51
O=S(=O)(c1ccc(F)cc1)N1CCCNCC1	1.3	0.07
CCOC(=O)n1c(=O)n(Cc2cccc(F)c2)c2ccccc21	2.6	-0.19
COc1ccc2cc3c(N)nn(C(=O)c4cccc([N+](=O)[O-])c4)c3nc2c1	0.45	-1.7
CCN(C(=O)COC(=O)c1ccc(OCc2c(C)noc2C)cc1)c1ccccc1	0.12	-0.02
FC(F)Oc1ccc(NC(=S)NCc2ccco2)cc1Cl	2.3	-0.11
Cc1ccc(S(=O)(=O)N(C)C)cc1NC(=O)CCCNC(=O)c1ccc(Cl)cc1	1.1	-0.33
CCOCCCNC(=O)c1ccc(C2SCC(=O)N2Cc2ccccc2)cc1 (stereo not given)	0.71	-0.44
Cc1cc(-c2nnc(CCC(=O)NC(c3ccccc3)c3ccccc3)o2)no1	0.12	-0.47
CCc1nnc(NC(=O)CN2CCN(Cc3ccc(F)cc3)CC2)s1	0.56	0.5
Cc1cc(C)cc(NC(=O)C2C3C=CC4(O3)C2C(=O)N(CCCN2CCCCC2)C4C(=O)NC2CCCCC2)c1 (stereo not given)	1.1	2.1
CSc1ncc(CO)n1Cc1ccccc1	1.3	0.61
O=C(COC(=O)C12CC3CC(CC(C3)C1)C2)N1CCN(S(=O)(=O)c2ccccc2)CC1	0.3	0.04
CN(C(=O)C1CCCN(S(=O)(=O)c2cccc([N+](=O)[O-])c2)C1)C1CCS(=O)(=O)C1 (stereo not given)	0.44	-1.4
C/C(=N\N(c1ccccc1)c1ccccc1)c1ccc(N)cc1	2.6	-0.27
CCC(=O)Nc1ccccc1C(=O)OCC(=O)Nc1ccc(S(N)(=O)=O)cc1	0.68	0.73

Additional results
SMILES	KCNQ2 pot	KCNQ2 pot baseline
CC(C)n1cnnc1SCC(=O)Nc1ccc(N2CCCCC2)cc1	0.92	-0.93
COc1ccc(-c2csc3[nH]c(=S)n(-c4ccccc4)c(=O)c23)cc1OC	0.12	-0.61
CCc1nccn1CCC(=O)N1CCCC(N2CCN(c3ccccc3F)CC2)C1 (stereo not given)	0.8	1.1
COc1ccc(S(=O)(=O)N2CCC(C(=O)Nc3nccs3)CC2)cc1	0.52	-0.4
CCOC(=O)CSc1nnc(CNC(=O)c2cccc(C)c2)n1C	1.3	-2.1
Cc1cc(-c2nnnn2-c2ccc(C(F)(F)F)cc2)no1	1.1	0.52
O=C(Nc1nccs1)C1CC(=O)N(c2ccccc2)C1 (stereo not given)	0.29	1.4
CCCCCC(=O)Nc1cc(N(C)C)nc2ccccc12	1.7	0.5
Cc1nc2ccccc2n1S(=O)(=O)N(C)C	0.58	0.16
CCn1c(C(C)NC(=O)c2ccc(C)cc2)n[nH]c1=S (stereo not given)	1.5	0.06
CCOc1cc2nc(-c3ccc(OC)c(OC)c3)nc(N3CC(C)OC(C)C3)c2cc1OC (stereo not given)	1.2	1.7
COc1c(C)cc(C(=O)C2CCCN(C(=O)Cn3ccc(C)n3)C2)cc1C (stereo not given)	2.9	2
C/C(CC(=O)NCc1ccco1)=N\NC(=O)C(c1ccccc1)c1ccccc1	0.42	0.02
CC(C)N1C(=O)C2ON(c3ccccc3)C(c3cccs3)C2C1=O (stereo not given)	0.03	-0.02
[O-][n+]1ccccc1/C=C/c1ccccc1	0.32	0.08
Cc1cc2nc(/C=C/c3nc4cc(C)c(C)cc4[nH]3)[nH]c2cc1C	1.1	-0.16
Cn1/c(=N/NC(=O)c2ccccc2Br)sc2ccccc21	3.4	0.89
CC1CCCC(NC(=O)c2cccc(S(=O)(=O)N3CCN(c4ccccc4)CC3)c2)C1C (stereo not given)	0.32	0.72
COc1ccccc1NC(=O)N1CCC(c2nc3cc(C)c(C)cc3[nH]2)CC1	0.37	0.47
CN(CC(=O)NCc1ccncc1)S(=O)(=O)c1ccc(Br)cc1	0.21	-2.2
Cc1noc(/C=C/N(C)C)c1S(=O)(=O)N1CCN(c2ccc(F)cc2)CC1	0.41	0.02
CC(=O)Nc1ccc(-c2csc(NC(=O)C3CC(=O)N(c4ccc5c(c4)OCCO5)C3)n2)cc1 (stereo not given)	0.14	-0.6
COc1ccc(CCN(C(=O)C(F)(F)F)C(C(=O)NC2CCCC2)c2cccs2)cc1OC (stereo not given)	2.8	-0.14
CCCCN1CN(S(=O)(=O)c2cccs2)c2nc3ccccc3nc21	2.1	-1
CCCCCC1CC(=O)N(Cc2ccc(Cl)cc2)C(=O)N1 (stereo not given)	0.67	0.04

In the list so far, 2 have bromine:
SMILES	KCNQ2 pot	KCNQ2 pot baseline
Cn1/c(=N/NC(=O)c2ccccc2Br)sc2ccccc21	3.4	0.89
CN(CC(=O)NCc1ccncc1)S(=O)(=O)c1ccc(Br)cc1	0.21	-2.2

(further entries)
SMILES	KCNQ2 pot	KCNQ2 pot baseline
COc1ccc(-c2cc(C(=O)Nc3cnn(Cc4ccccc4C)c3)no2)cc1OC	0.41	-1.2
CCc1ccccc1N(CC(=O)NCc1ccco1)C(=O)CCC(=O)Nc1nccs1	0.3	2.1
Cn1c(=O)[nH]c(=O)c2c1nc(N(CCO)Cc1ccccc1)n2CCCc1ccccc1	0.85	0.66
COc1cc(CN2CCCC(N3CCN(c4ccccc4C)CC3)C2)cc(Cl)c1O (stereo not given)	1.3	-0.41
COc1cc(CCN2C(=O)c3cccc4cccc(c34)C2=O)c(S(=O)(=O)NCCCO)cc1OC	0.39	1.5
O=C(/C=C/c1ccccc1)N1CCN(C(=O)c2ccco2)CC1	0.88	-0.16
N#C/C(=C1/CCCCCN1)c1nc2ccccc2s1	0.21	-0.96
CCCCOC(=O)Nc1cccc(Cl)c1C	2.3	1.4
CCONc1ncnc2nonc12	0.41	-0.06
CCOC(=O)C1CCCN(S(=O)(=O)Cc2ccc(Cl)cc2)C1 (stereo not given)	0.76	-2.2
Cn1c(SCC(=O)C(C)(C)C)nnc1-c1cccnc1	0.91	0.62
COc1ccc(S(=O)(=O)n2nc(OC(C)=O)cc2N)cc1	1.6	-0.11
Cc1cc(C)n2nc(C(=O)NC(C)(C)C)nc2n1	0.95	-0.98
COc1ccc(S(=O)(=O)N2CCCCC2)cc1NS(=O)(=O)c1cc(Cl)ccc1Cl	1.2	3.9
C=CCSc1nc(N)c(C(=O)Nc2ccccc2C)cc1C(N)=O	1.4	0.1
CC(=O)Nc1ccc(NC(=O)C(C)OC(=O)CCc2nc3ccccc3s2)cc1 (stereo not given)	0.18	0.55
Cc1ccc(C(=O)Nc2ccccc2N2CCCCC2)o1	0.17	2.6
Cc1ccc(CNC(=O)Nc2ccccc2)n1C	0.73	0.09
O=C(c1coc(=O)c(Br)c1)N1CCOCC1	1.5	-1.6
CC(C)COC(=O)NCCCOC(=O)Nc1ccccc1	2.2	-1.6
COc1ccc(NC(=O)c2cc(C(C)C)on2)cc1OC	1.2	2.9
CCC(C)(C(=O)NC1CCCCC1)N(Cc1cccs1)C(=O)c1ccccn1 (stereo not given)	0.12	0.25
Cc1ccc(C)c(N(CC(=O)NCc2ccco2)C(=O)CCC(=O)Nc2nccs2)c1	0.48	0.23
N#Cc1nc(-c2ccc(OCc3ccccc3)cc2)oc1N1CCOCC1	0.03	0.89
CCCc1cnc(N2CCN(C(=O)c3ccc(OC)cc3)CC2)nc1	0.85	-0.06

(list continues)
SMILES	KCNQ2 pot	KCNQ2 pot baseline
O=C(Cn1cc2c(n1)CCCCC2)NCCN1CCOCC1	0.03	1.7
COc1ccccc1COC(=O)N/C=C/c1ccco1	0.37	-0.32
O=C(O)CC1SC(=Nc2cccc(O)c2)NC1=O (stereo not given)	0.33	1.5
O=C1c2ccccc2-c2nc3ncnn3c(-c3ccccc3Cl)c21	1.3	0.01
CCOc1ccc2c(C)c(C)c(=O)oc2c1OCC	1.4	1.2
O=C1C=CC(O)(c2cc(=O)c3c(O)cc(O)cc3o2)C=C1	4.9	-0.05
Cc1ccc(N/C=C/c2onc(C)c2[N+](=O)[O-])cc1	1.5	0.03
CC(=O)Oc1ccc(C(=O)[C@H]2[C@H]3C(=O)N(c4ccc(C)cc4C)C(=O)[C@H]3[C@@H]3C=CC=NN32)cc1	0.04	0.5
COc1ccc(C(=O)NCCNc2nc3ccc(C)cc3cc2C#N)cc1	1.2	-0.14
CC(C)NCCOCCSc1ccc(Cl)cc1	2.2	0.22
COc1ccc(/C=N/Nc2ccc([N+](=O)[O-])cc2)cc1O	0.16	2.6
O=C(Nc1ccccc1Cl)c1ccc(-n2cccn2)c([N+](=O)[O-])c1	1.1	-2.3
CS(=O)(=O)N(CC(=O)N1CCCCC1)c1sc2c(c1C#N)CCCC2	1.1	1.3
C=CCc1cccc(/C=N/NC(=O)CNc2ccccc2)c1O	4.4	0.44
COCCN(C(=O)c1ccccc1)c1nnc(-c2cccnc2)s1	1.3	0.42
Cc1cc(C)c2sc(NC(=O)C3=COCCO3)nc2c1	1.1	-0.66
CC(C)C[C@H](NC(=O)OC(C)(C)C)C(=O)N[C@@H](CO)[C@H](O)[C@@H]1C[C@@H]1C(=O)N(C)C	0.74	0.1
Cc1cc2ncn(CC(O)COc3cccc(C(=O)O)c3)c2cc1C (stereo not given)	1.6	0.31
Cc1ccccc1-n1nnnc1SCC(=O)N(C)C1CCS(=O)(=O)C1 (stereo not given)	0.03	-0.09
COC(=O)c1cccc(S(=O)(=O)N2CCOCC2)c1	2.1	1.1
Cc1nn(Cc2ccccc2)c(C)c1NC(=O)CSc1nc(C2CC2)nc2c1cnn2-c1ccccc1	4.8	-2.4
COc1ccccc1NS(=O)(=O)c1cccc2cccnc12	0.86	-0.65
CCc1ccc(-n2c(CSc3nnnn3-c3ccccc3)nc3ccccc3c2=O)cc1	0.03	0.11
CCCCNC(=O)[C@@H]1CSC2c3ccccc3C(=O)N21 (stereo not given in full)	1.3	0.04
COc1ccc(CN2CCNC(=O)C2CC(=O)N(C)CCc2cnn(C)c2)c(F)c1 (stereo not given)	0.3	0.67

The results go on:
SMILES	KCNQ2 pot	KCNQ2 pot baseline
CNc1nc(C)c(C(=O)OCC(=O)OC)s1	1	-0.12
CC1(C(=O)O)CC(C)(C(=O)O)CC(C)(C(=O)O)C1 (stereo not given)	1	2.2
CCCCOc1cccc(C2C(C(=O)c3cccs3)=C(O)C(=O)N2Cc2cccnc2)c1 (stereo not given)	0.43	1
COc1ccc(OC)c(NC(=O)CSC2=NCCS2)c1	0.07	1.1
O=C(Nc1cccnc1Cl)c1ccc(Cl)c([N+](=O)[O-])c1	2.1	-2.5
CC1CN(C(=O)CCNC(=O)c2ccc(Br)cc2)CC(C)O1 (stereo not given)	0.54	0.66
CCOc1ccc(CCNC(=O)Cn2ncn3nc(-c4ccc(OC)cc4)cc3c2=O)cc1	1.1	1.4
O=C1c2ccc3c4c(ccc(c24)C(=O)N1c1cccc(O)c1)C(=O)N(c1cccc(O)c1)C3=O	0.47	1.1
COc1cccc(NC(=O)CSc2nc(N)cc(N)n2)c1	1.6	0.08
CC(=O)Nc1ccc(NC(=O)c2cc(-c3cc(C)c(C)cc3O)n[nH]2)cc1	0.79	0.98
O=C(NNC1=NCCCCC1)Nc1cccc(Cl)c1	0.33	1.6
CC(C)CN(CC(C)C)S(=O)(=O)N1CCC(C(=O)NCc2ccccn2)CC1	0.83	-0.51
CCOC(=O)c1c(NC(=O)C2CCCN(S(=O)(=O)c3ccc(C)cc3)C2)sc2c1CCCC2 (stereo not given)	0.46	-0.98
COc1c(NC(C)=O)c2ccccc2c2ccccc12	0.37	0.44

Whole records, quoted from the list. Screens in order: KCNQ2 pot	KCNQ2 pot baseline
CNc1nc(C)c(C(=O)OCC(=O)OC)s1 is listed with 1	-0.12
COc1cccc(NC(=O)CSc2nc(N)cc(N)n2)c1 is listed with 1.6	0.08

Pulled one by one from the entries so far, 6 records:
SMILES	KCNQ2 pot	KCNQ2 pot baseline
O=C(Nc1cccnc1Cl)c1ccc(Cl)c([N+](=O)[O-])c1	2.1	-2.5
COc1cccc(NC(=O)CSc2nc(N)cc(N)n2)c1	1.6	0.08
CCOc1ccc(CCNC(=O)Cn2ncn3nc(-c4ccc(OC)cc4)cc3c2=O)cc1	1.1	1.4
CC1(C(=O)O)CC(C)(C(=O)O)CC(C)(C(=O)O)C1 (stereo not given)	1	2.2
CCOC(=O)c1c(NC(=O)C2CCCN(S(=O)(=O)c3ccc(C)cc3)C2)sc2c1CCCC2 (stereo not given)	0.46	-0.98
O=C1c2ccc3c4c(ccc(c24)C(=O)N1c1cccc(O)c1)C(=O)N(c1cccc(O)c1)C3=O	0.47	1.1

Bioassay records as filed in PubChem BioAssay.
